Bioassay records as filed in PubChem BioAssay.
Diaphorase inh – diaphorase inhibitors and chemical oxidizers, primary screen, counter-screen for diaphorase-coupled primary assays, biochemical, uHTS, resorufin fluorescence; diaphorase resazurin-to-resorufin fluorescence, NADH, 16 min; bacterial (C. kluyveri) enzyme, not human; inhibition, % at 20 µM; actives 0.69% (n = 190,000); AID 1217, 2008;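 active = primary screen inhibition at 20 µM above a set limit, cut at about 50% in these data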;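 also: plate controls were DMSO with full reaction for no effect and wells lacking NADH for full effect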
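Assay system – diaphorase enzyme from Clostridium kluyveri · Amount – diaphorase 0.14 U/mL (working solution) · Times – reaction incubation of 16 min at room temperature · Controls – No-NADH positive control and DMSO neutral control · Signal – resorufin fluorescence 544/590 nm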
PMI activator – activators of human PMI, primary screen, biochemical, fluorescence intensity, near-Km mannose 6-phosphate | Mannose-6-phosphate isomerase (Homo sapiens), P34949 | purified human PMI, coupled resazurin fluorescence, 20 min; stronger effect = higher value; 1 = vehicle control, 0 substrate-free wells | activation factor at 20 µM | actives 0.005% (n = 190,000) | AID 1214, 2008;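 active = activation factor of 2 or more at 20 µM, relative to plate controls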
Target sequence (P34949 whole entry, looked up): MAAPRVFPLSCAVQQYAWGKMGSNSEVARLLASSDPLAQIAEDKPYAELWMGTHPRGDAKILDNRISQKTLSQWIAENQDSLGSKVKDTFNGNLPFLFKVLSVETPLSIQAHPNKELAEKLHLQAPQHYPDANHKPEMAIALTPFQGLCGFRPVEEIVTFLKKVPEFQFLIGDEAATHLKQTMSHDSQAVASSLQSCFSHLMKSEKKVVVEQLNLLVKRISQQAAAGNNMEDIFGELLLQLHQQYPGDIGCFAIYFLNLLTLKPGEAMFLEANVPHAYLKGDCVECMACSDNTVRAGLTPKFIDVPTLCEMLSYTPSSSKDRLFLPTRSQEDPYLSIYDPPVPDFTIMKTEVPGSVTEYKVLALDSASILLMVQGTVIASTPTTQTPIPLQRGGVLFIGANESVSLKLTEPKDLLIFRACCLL
PMI act satM6P – human PMI activators, high substrate, primary screen, biochemical, fluorescence intensity, near-saturating mannose 6-phosphate. AID 1216, 2008. actives 0.34% (n = 190,000). coupled PMI enzyme assay, resazurin fluorescence, 20 min; stronger effect = higher value; 1 = untreated enzyme, 0 = substrate-free blank. activation factor at 20 µM. Mannose-6-phosphate isomerase (Homo sapiens), P34949;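 active = activation factor of 2 or more at 20 µM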
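test system = human PMI in coupled enzyme assay | medium = HEPES-buffered pH 7.4 with magnesium and detergent | also added = 1.0 mM mannose-6-phosphate substrate with 0.22 mM NADP+ | compound = 20 µM single dose | times = 20 min incubation at room temperature | measured by = resorufin fluorescence (Ex 544/Em 590 nm) from resazurin via diaphorase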
Diaphorase act – compounds boosting diaphorase resazurin reduction – biochemical, uHTS, resorufin fluorescence, counter-screen for diaphorase-coupled primary assays, primary screen. AID 1229, 2008. actives 0.005% (n = 190,000). Diaphorase/resazurin coupled assay, 16 min; stronger effect = higher value; 1 = vehicle wells, 0 = NADH-free wells. activation factor at 20 µM;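 active = diaphorase activity raised at least twofold by the compound at 20 µM; inactive = activation factor below 2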
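Assay system: bacterial diaphorase enzyme (C. kluyveri) / Input: enzyme 0.07 U/mL final / Medium: 50 mM HEPES pH 7.4 with 4.542 mM MgCl2, 0.005% Tween 20 / Doses: single compound dose of 20 µM, 1% DMSO final / Incubation: 16 min enzyme reaction, ambient temperature / Signal: fluorescence, excitation 544 nm and emission 590 nm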
HMGR II inh – inhibitors of E. faecalis class II HMGR, primary screen, biochemical, Enterococcus faecalis; HMG-CoA reductase (Enterococcus faecalis, mvaE); purified E. faecalis HMGR, NADPH absorbance 340 nm kinetic; inhibition, % at 10 µM; actives 0.41% (n = 190,000); AID 1066, 2008;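 active = inhibition above a set limit, the median over all tested compounds plus 3 SD, cut at about 9.5% in these data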;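 also: enzyme runs in reverse so mevalonate oxidation gives rising NADPH absorbance; 0% = complete reaction with DMSO and 100% = background rate lacking mevalonate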
The depositor's hits bear a star; & = joins results of further samples. Only part of the results is shown. The share of hits here may be higher or lower than overall.

1) CCCCC1=NC2(CCCC2)C(=O)N1Cc1ccc(-c2ccccc2-c2nn[nH]n2)cc1
2) O=C(CCc1ccccc1)Nc1ncn[nH]1
3) O=C(NNc1ccccn1)C(=O)NNS(=O)(=O)c1ccc(Cl)cc1
4) NS(=O)(=O)c1cc2c(cc1Cl)NC=NS2(=O)=O
5) O=C(N/N=C/c1ccc([N+](=O)[O-])o1)c1ccc(O)cc1
6) COc1ccc2cc([C@H](C)C(=O)O)ccc2c1
compound no.	1	2	3	4	5	6
Diaphorase inh	15	1	43	10	11	17
PMI activator	1	1.2	0.6	1	1	1
PMI act satM6P	1	1.1	1	1.1	0.5	1
Diaphorase act	0.9	1	0.6	0.9	0.9	0.8
HMGR II inh	4	-2	-6	1	-8	-2

Next part; it opens with the four that closed the last part.
3) O=C(NNc1ccccn1)C(=O)NNS(=O)(=O)c1ccc(Cl)cc1
4) NS(=O)(=O)c1cc2c(cc1Cl)NC=NS2(=O)=O
5) O=C(N/N=C/c1ccc([N+](=O)[O-])o1)c1ccc(O)cc1
6) COc1ccc2cc([C@H](C)C(=O)O)ccc2c1
7) CCCc1cc(=O)[nH]c(-n2[nH]c3c(c2=O)CCCC3)n1
8) O=C(NNC(=S)NC(=O)c1ccccc1[N+](=O)[O-])c1ccccc1[N+](=O)[O-]
9) Cc1ccc(SC(C)C(=O)Nc2ncn[nH]2)cc1 (stereo unspecified)
10) O=C(Nc1ncn[nH]1)c1ccc(Cl)c(S(=O)(=O)Nc2ccc(Cl)cc2)c1
11) CC1CC(C)(C)NCCNC(C)CC(C)(C)NCCN1 (stereo unspecified)
12) Cn1c(=O)c2[nH]cnc2n(C)c1=O
compound no.	3	4	5	6	7	8	9	10	11	12
Diaphorase inh	43	10	11	17	15	8	0	13	13	2
PMI activator	0.6	1	1	1	0.9	1.1	0.9	1.6	1	1.1
PMI act satM6P	1	1.1	0.5	1	0.6	1.1	1	2.1*	1	1.1
Diaphorase act	0.6	0.9	0.9	0.8	0.9	0.9	1	0.9	0.9	1
HMGR II inh	-6	1	-8	-2	-3	-1	-1	-1	1	6

PMI act satM6P: what is marked active above.
no. | molecule | PMI activator | PMI act satM6P | HMGR II inh
10 | O=C(Nc1ncn[nH]1)c1ccc(Cl)c(S(=O)(=O)Nc2ccc(Cl)cc2)c1 | 1.6 | 2.1* | -1

Values by screen from the list:
Entries 2–5 in PMI activator: 1.2, 0.6, 1, 1
Entries 2–5 in PMI act satM6P: 1.1, 1, 1.1, 0.5
Entries 2–5 in HMGR II inh: -2, -6, 1, -8

Exported with each value named: two of the compounds above
#7 CCCc1cc(=O)[nH]c(-n2[nH]c3c(c2=O)CCCC3)n1
- Diaphorase inh: 15
- PMI activator: 0.9
- PMI act satM6P: 0.6
- Diaphorase act: 0.9
- HMGR II inh: -3
#8 O=C(NNC(=S)NC(=O)c1ccccc1[N+](=O)[O-])c1ccccc1[N+](=O)[O-]
- Diaphorase inh: 8
- PMI activator: 1.1
- PMI act satM6P: 1.1
- Diaphorase act: 0.9
- HMGR II inh: -1

Next part.
13) Cc1ccc(NC(=S)NNC(=O)c2cn(C)nc2C)cc1
14) O=C(/C=C/c1ccccc1)Nc1ncn[nH]1
15) O=C(CCCN1CC=C(n2c(=O)[nH]c3ccccc32)CC1)c1ccc(F)cc1
16) Cc1cc(N=Cc2c(O)ccc3ccccc23)no1
compound no.	13	14	15	16
Diaphorase inh	9	2	2&19	44
PMI activator	1.1	1	1&0.9	0.6
PMI act satM6P	1.1	0.9	1.1&0.9	0.3
Diaphorase act	0.9	1	1&0.8	0.6
HMGR II inh	6	-1	-5&4	-4
